2A StopGo – High Throughput Screening for Foot and Mouth Disease Virus Antivirals; hit rate 1.2% among 410,000; AID 1159524, 2015; human cells with a luciferase reporter of 2A StopGo recoding; control for the full effect not named in the record; Potency, µM (highest dose often 57.9 µM), without a hit: at the top dose signal change, negative = less light; active = well fitted falling curve with a large enough effect; inconclusive = small, poorly fitted or top-dose-only effect; inactive = no such curve, though single readings can be large or run the other way; tested in HEK293T cells; note: % is set by controls: 0 for no effect and ±100 for the full control effect; nearly all actives have a fitted effect of over 45% in size; luciferase light after 4 h
LASV entry inh – qHTS for Inhibitors of binding or entry into cells for Lassa Virus | Lassa virus pseudotype entry inhibition, cell reporter; control for the full effect not named in the record | Potency, µM (series often up to 37.9 µM), without a hit: top-dose activity change, negative = inhibition, actives largely listed as inhibitors | hit rate 1.2% among 300,000; active means well fitted inhibition curve with a large enough effect; inconclusive means small, poorly fitted or top-dose-only effect, or effect the other way; inactive means flat fitted curve, though single readings scatter; tested in HEK293 cells; note: % is set by controls: 0 for no effect and ±100 for the full control effect; nearly all actives have a fitted effect of over 50% in size; luciferase read-out
SARS PLpro yeast – qHTS of Yeast-based Assay for SARS-CoV PLP. hit rate 0.19% among 330,000. S. cerevisiae expressing SARS-CoV PLpro, growth rescue; control for the full effect not named in the record. Potency, µM (titrated, usually from 32.9 µM), without a hit: top-dose activity, positive = growth rescue; active means well fitted rising curve with a large enough effect; inconclusive means small, poorly fitted or top-dose-only effect; inactive means no such curve, though single readings can be large or run the other way; note: 0% is about no effect; nearly all actives have a fitted effect of over 55% in size; growth read by luminescence after 48 h
RE007 growth inh – qHTS Assay for Inhibitors of the HIV-1 protein Vpr. AID 651644, 2012. Potency, µM (series often up to 92.2 µM), for the others: at the highest dose activity change, negative = less growth. S. pombe RE007 Vpr strain, BacTiter-Glo ATP luminescence, 24 h; control for the full effect not named in the record. hit rate 0.21% among 360,000; active = well fitted falling curve with a large enough effect; inconclusive = small, poorly fitted or top-dose-only effect; inactive = no such curve, though single readings can be large or run the other way;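 note: % is set by controls: 0 for no effect and ±100 for the full control effect; nearly all actives have a fitted effect of over 50% in size; the assay follows cell death caused by Vpr and the record does not say whether a fall means rescue or toxicity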
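Fission yeast RE007 carrying one integrated HIV-1 vpr copy, seeded at OD 0.01 in PMG+AL medium with 23 nL pinned compound. Grown 24 h at 30 degrees; viability read by BacTiter-Glo luminescence after 5 min.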
NS1 inh – qHTS Assay for Inhibitors of Influenza NS1 Protein Function; hit rate 0.4% among 270,000; Potency, µM (doses to about 46.1 µM), inactives show at the highest dose activity, positive = more growth; S. cerevisiae slowed by influenza A NS1, growth recovery by OD600; active means well fitted rising curve with a large enough effect; inconclusive means small, poorly fitted or top-dose-only effect; inactive means no such curve, though single readings can be large or run the other way; note: nearly all actives have a fitted effect of over 50% in size
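S. cerevisiae expressing influenza A NS1, grown in glucose, washed, then diluted 1:100 into pH 6.0 -URA galactose medium with 23 nl compound. Growth recovery read as OD600; NS1-free strain serves as control.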
Marburg entry inh – qHTS for inhibitors of binding or entry into cells for Marburg Virus | Marburg virus pseudotyped entry inhibition, cell reporter; control for the full effect not named in the record; about a third of the inactives were read at about 46 µM | Potency, µM (doses to about 37.8 µM), for the others: top-dose activity change, negative = inhibition, actives largely listed as inhibitors | hit rate 1.8% among 300,000 | AID 540276, 2011; active = well fitted inhibition curve with a large enough effect; inconclusive = small, poorly fitted or top-dose-only effect, or effect the other way; inactive = flat fitted curve, though single readings scatter; tested in HEK293 cells; about a fifth of its hits are not listed in these tables; note: % is set by controls: 0 for no effect and ±100 for the full control effect; luciferase read-out
Cruzain noTriton – qHTS Assay for Promiscuous and Specific Inhibitors of Cruzain (without detergent); purified cruzain, Z-FR-AMC fluorescence, no detergent; Potency, µM, without a hit: max response, negative = inhibition, most hits filed as inhibitors; Cruzipain (Trypanosoma cruzi), P25779; AID 1476, 2009; hit rate 2.3% among 200,000;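 note: plate controls were enzyme without inhibitor for no effect and buffer without enzyme for full effect; nearly all actives have a fitted effect of over 40% in size; top concentration of the series not given in the record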
Target sequence (P25779 123-467 limits assumed): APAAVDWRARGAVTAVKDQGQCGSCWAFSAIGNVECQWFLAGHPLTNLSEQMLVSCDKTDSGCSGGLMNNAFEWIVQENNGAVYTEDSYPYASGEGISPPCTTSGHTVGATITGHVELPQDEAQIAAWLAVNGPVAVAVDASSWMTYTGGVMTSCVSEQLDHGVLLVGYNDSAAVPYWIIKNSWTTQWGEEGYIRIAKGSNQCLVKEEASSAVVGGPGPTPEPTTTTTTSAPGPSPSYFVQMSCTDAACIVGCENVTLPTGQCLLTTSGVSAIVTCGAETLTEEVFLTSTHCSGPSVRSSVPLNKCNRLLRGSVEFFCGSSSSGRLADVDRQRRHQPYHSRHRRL
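Detergent-free condition (0.00005% Triton X-100) in acetate buffer pH 5.5 with DTT. 1.5 nM enzyme and compound were pre-mixed 15 min, then 2 uM Z-FR-AMC substrate added; reaction progress from fluorescence change between first and third reads (60 s).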
Cruzain Triton – qHTS Assay for Promiscuous and Specific Inhibitors of Cruzain (with detergent) | Cruzipain (Trypanosoma cruzi), P25779 | purified cruzain, Z-FR-AMC fluorescence, 0.01% Triton | Potency, µM, without a hit: max response, negative = inhibition, actives largely listed as inhibitors | hit rate 0.43% among 200,000;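 note: plate controls were neutral wells for no effect and buffer without enzyme for full effect; nearly all actives have a fitted effect of over 40% in size; top concentration of the series not given in the record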
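Steps: dispense cruzain (1.5 nM final) in acetate buffer pH 5.5 with DTT and 0.01% Triton X-100; pin-transfer compounds; incubate 15 min RT; add Z-FR-AMC (2 uM final); read fluorescence every 30 s, using the 60 s intensity change.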
Numbers without * were called inactive; ? = inconclusive; . = not tested or not shown; & = joins results of further samples; [ ] = dose if it differs, or a comment. Unless noted, calls come from the whole dose curve; as a rule, active = well fitted curve in the direction sought with a large enough effect; inconclusive = small, poorly fitted or top-dose-only effect, or another doubt; inactive = no such curve, though single readings can be large; an effect the other way counts as inactive or inconclusive. Potency is the fitted concentration of half-maximal effect.

SMILES | 2A StopGo | LASV entry inh | SARS PLpro yeast | RE007 growth inh | NS1 inh | Marburg entry inh | Cruzain noTriton | Cruzain Triton
Cc1ccc(NC(=O)CN(C)C(=O)CSc2n[nH]c(N)n2)cc1 | 7% | 16% | -3% | 2% | -3% | 17% | -12% | 1.6%
Cc1ccc(CNC(=O)c2cnn(-c3cccc(C)c3)c2C2CCN(C(=O)OC(C)(C)C)CC2)cc1 | ? | ? | . | . | . | . | -7% | -13%
CC1CCN(c2nc3c(cc2C#N)COC(C)(C)C3)CC1 | -21% | 7% | 0% | 5% | -2% | 13%[46.1 µM] | . | .
CN(C(=O)c1ccc(C#N)cc1)c1nnc(-c2cnccn2)s1 | 10% | . | 0% | 1% | -79% | . | . | .
COC(=O)COc1c(Cl)cc(Cl)c2ccc(C)nc12 | -13% | -2%[46.1 µM] | 0% | -5% | . | 12%[46.1 µM] | . | .
COc1ccc(NC(=O)c2sc(N3CCOCC3)nc2-c2ccccc2)c(OC)c1 | 0% | ? | 9% | 10% | 2% | ? | ? | -9.8%
COc1ccc(NS(=O)(=O)c2ccc(NS(C)(=O)=O)cc2)cc1 | . | -6% | -5% | 2% | 2% | 4% | 6% | 1.7%
COc1ccccc1NC(=O)CCn1c(=O)sc2ccccc21 | . | 23% | -25% | 9% | -5% | -5% | -4% | -5.4%
CCOC(=O)N1CCN(C(=O)c2ccc(Oc3ccc([N+](=O)[O-])cc3)cc2)CC1 | ? | -20% | 0% | 32% | . | -11%[46.1 µM] | . | .
CN(C)c1oc(-c2ccccc2Cl)nc1C#N | 14% | 5% | -3% | -14% | 0% | -4% | ? | 17%
COc1ccc(NC(=S)NCc2ccc(S(N)(=O)=O)cc2)cc1OC | -6% | 14%[46.1 µM] | 1% | -4% | . | 10%[46.1 µM] | . | .
O=C(Nc1cccc2ncccc12)c1cc2ccccc2o1 | -8% | 0% | 2% | 14% | -49% | 0% | 0% | -6.8%
Cc1ccc(C(=O)N2CCN(Cc3cc(=O)n4nc(-c5ccccc5)sc4n3)CC2)cc1 | -9% | 9%[46.1 µM] | . | . | . | . | 15% | 3.5%
N#C/C(=C\c1c(N2CCOCC2)nc2ccccn2c1=O)S(=O)(=O)c1ccccc1 | -17% | -11% | 2% | 1% | -6% | -1% | 19% | -5.1%
Cc1cccc(OCCCCn2c(C3CC(=O)N(c4ccccc4Cl)C3)nc3ccccc32)c1 (stereo unspecified) | ? | ? | . | . | . | ? | 18% | -11%
Cc1csc(SCC(=O)NC23CC4CC(CC(C4)C2)C3)n1 | -3% | 1% | 1% | -17% | -63% | -19% | 3% | -0.1%
Cc1cccc2c(Cl)cc(=O)[nH]c12 | . | . | -13% | . | -3% | . | -9% | -2.6%
CCC(COC)NCc1cn(-c2ccc(F)cc2F)nc1-c1ccccc1C (stereo unspecified) | -12% | . | 0% | -6% | -1% | . | . | .
COc1cc(Cl)ccc1OCc1cc(C(=O)NCC(C)c2ccccc2)no1 (stereo unspecified) | -2% | . | 3% | -3% | -36% | . | . | .
Cc1cccc(OCC(=O)N2CCC3(CC2)CC(=O)c2ccccc2O3)c1 | -8% | ? | -10% | -15% | . | 8%[46.1 µM] | . | .
CCOC(=O)c1cnc2ccc(C)cc2c1Sc1ccc(F)cc1 | ? | -8% | -26% | 6% | 6% | 5%[46.1 µM] | 5% | -6.9%
COc1cccc(CNCc2cccc(Br)c2)c1OC | -5% | -10% | 0% | -13% | . | -15%[46.1 µM] | . | .
FC(F)(F)c1cccc(N2CCC(N=CN3CCCCCC3)=N2)c1 | 43%[activator] | 16% | -2% | -3% | . | -18%[46.1 µM] | . | .
COc1ccc(NC(=O)Nc2cccc3ccccc23)c(OC)c1 | -12% | . | 4% | -3% | 18% | . | . | .
CCN(CC)CCn1c2c(c(SCC(=O)Nc3ccccc3Cl)nc1=O)CCCC2 | -6% | 10% | -1% | -5% | . | -5% | . | .
Cn1c(CNC(=O)c2ccc(Cl)cc2)nnc1SCC(=O)Nc1sc2c(c1C#N)CCCC2 | -5% | -7% | 2% | 2% | 7% | -3% | 30% | -0.8%
CCOc1ccc(C(=O)NCCSc2c(C)[nH]c3ccccc23)cc1OCC | -27% | -15%[46.1 µM] | . | . | . | 3%[46.1 µM] | 20% | -6.5%
CC(=O)N1CCc2cc(S(=O)(=O)NCCCOC(C)C)ccc21 | 1% | -3% | -5% | 15% | -1% | -20%[46.1 µM] | -2% | 4.9%
O=C(c1nnc(-c2ccncc2)o1)c1ccccc1Cl | . | -14% | 1% | -12% | -9% | 5% | 3% | 1.0%
Clc1ccc(-c2nnc(SCc3nc4ccccc4s3)o2)cc1 | 98%[activator] | . | 13% | -14% | -11% | . | -6% | -2.2%
Cc1ccccc1C(=O)NNC(=O)Cc1ccccc1 | . | 18% | -7% | 6% | 4% | -1% | -5% | 4.0%
CCCCn1c(N)c(N(CCC(C)C)C(=O)CSc2nnc(C)s2)c(=O)[nH]c1=O | -7% | 1% | -2% | 9% | 6% | -4%&-4% | ? | 2.1%
COc1ccccc1NC(=O)C1CCC(CNc2c(N3CCCCC3)c(=O)c2=O)CC1 (stereo unspecified) | -18% | . | -1% | 5% | 3% | . | . | .
CC(=O)c1ccc(NC(=O)Nc2ccc([N+](=O)[O-])cc2C)cc1 | ? | -9% | 13% | 3% | 6% | -46% | -10% | -2.5%
CC(OC(=O)CCCC(=O)Nc1ccc(F)cc1)C(=O)c1ccccc1 (stereo unspecified) | -13% | -9% | -2% | 2% | -11% | 5% | . | .
CC(=O)c1cn(-c2ccc(Cl)cc2)c(=O)n(Cc2ccc(F)cc2)c1=O | -10% | 0% | -1% | -10% | 0% | ? | . | .
COc1cccc(/C=N/NC(=O)c2cccs2)c1 | 45%[activator] | ? | -2% | -9% | -36% | ? | . | .
CCS(=O)(=O)N1CCc2nc(-c3ccccc3)sc2C1 | 17% | . | -1% | 2% | -1% | . | . | .
Nc1ccc(S(=O)(=O)c2ccc(N)nc2)cc1 | -10% | 15%[46.1 µM] | . | 5% | . | -2%[46.1 µM] | . | .
CCCCS(=O)(=O)Nc1ccc(Cc2ccncc2)cc1 | -11% | -11% | 1% | -9% | -7% | -2% | 1% | -1.5%
Cc1onc(-c2c(Cl)cccc2Cl)c1NC(=O)NN(C)c1ccc([N+](=O)[O-])cn1 | 3% | 12% | -1% | 0% | 1% | 3% | . | .
COc1ccc(-c2nc(CS(=O)CC(=O)N3CCOCC3)c(C)o2)cc1OC (stereo unspecified) | 1% | . | -3% | -6% | -2% | . | . | .
O=C(Nc1cccnc1)c1cc(-c2cccc(Cl)c2)on1 | 12%&-9% | 11% | -6% | -1% | -22% | ? | 12% | 1.3%
COc1ccc(NC(=O)C(=O)N/N=C(\C)CC(=O)Nc2cc(C)ccn2)c(OC)c1 | 3% | 4% | 1% | -24% | 7% | 2% | . | .
Cc1ccccc1CN1CCN(CC2CC2)CC1CCO (stereo unspecified) | -9% | . | 0% | -4% | 0% | . | . | .
Cc1cccc(NC(=O)c2ccc3c(c2)C(=O)N(Cc2cccnc2)C3=O)c1C | -6% | 1% | -3% | 10% | 15% | 7% | . | .
COc1ccccc1C(=O)NCC(=O)Nc1ccc2c(c1)OCO2 | 19% | -12% | -3% | 23% | . | 16% | . | .
CNC(=O)NC(=O)COC(=O)c1ccccc1OCc1ccccc1 | -18% | ? | 0% | 4% | . | ? | . | .
Cc1ccn2c(Nc3ccc4c(c3)OCCO4)c(-c3ccc(Cl)s3)nc2c1 | 43%[activator] | ? | . | . | . | ? | -78% | -6.2%
Cc1cccc(N2CCN(C(=O)CCCn3c(=O)c4cccn4c4cccnc43)CC2)c1C | ? | . | -14% | 3% | 4% | . | . | .
CC(C)CCN(C(=S)NC(=O)C1CCCCC1)c1c(N)n(Cc2ccccc2)c(=O)[nH]c1=O | 7% | ? | 2% | -8% | . | -19%[46.1 µM] | . | .
Cc1cc(C)c(S(=O)(=O)c2ccccc2)c(OC(=O)c2ccc(Cl)cc2Cl)n1 | -23% | -25% | -5% | 27% | 0% | -22%[46.1 µM] | -8% | 4.5%
COc1ccc(C2=CCCC2)c(OC)c1 | -7% | ? | . | 5% | . | 17% | . | .
Cc1cc(C)n(CC(=O)O)n1 | 7% | ? | -9% | 7% | -3% | 11% | -2% | -0.2%
Cc1sc(/C=C2\C(=O)ON=C2c2ccccc2)cc1Br | . | . | 21% | . | 10% | . | 25µM* | ?
Cn1cccc1/C=N/NC(=O)Cc1cccs1 | 34%[activator] | 17% | 0% | -9% | -1% | -4%[14.2 µM] | . | .
Nc1nncn1C(=O)c1cc(Br)ccc1Cl | -28% | -1% | -2% | 53% | -2% | 8%[46.1 µM] | -2% | -0.1%
CC(=O)Nc1nonc1-c1nnc(SCC(=O)Nc2cccc(C)c2C)n1-c1ccccc1 | -17% | -8%[46.1 µM] | . | . | . | -10%[46.1 µM] | -8% | -2.9%
CC(C)C(=O)Nc1cc2c(cc1C(=O)c1ccccc1)OCCO2 | -14% | -10% | 2% | -4% | -4% | 18% | -11% | -3.4%
COc1ccccc1CNC(=O)CS(=O)(=O)c1ccc(C)cc1 | -21% | . | 2% | -4% | 1% | . | . | .
More records.
SMILES | 2A StopGo | LASV entry inh | SARS PLpro yeast | RE007 growth inh | NS1 inh | Marburg entry inh | Cruzain noTriton | Cruzain Triton
CC(=O)Cc1nsc(NC(=O)c2ccc(Cl)cc2Cl)n1 | 26% | 3% | -6% | -7% | . | -3%[46.1 µM] | . | .
Cc1ccc(Cn2ncc3c(N4CCOCC4)ncnc32)cc1 | ? | 4% | -22% | -24%[3.69 µM] | -16% | -19%&-19% | -13% | -0.3%
C/C(=N\O)c1oc2ccc3c(C)cc(=O)oc3c2c1C | -7% | 14% | 0% | -27% | -4% | -2% | . | .
Cc1onc(-c2ccccc2Cl)c1C(=O)Nc1c(C)n(C)n(-c2ccccc2)c1=O | . | 7% | 23% | -3% | -5% | 6% | -5% | -1.3%

Source: PubChem (National Center for Advancing Translational Sciences (NCATS))
